Ecoli growth = inhibitors of Escherichia coli growth; OD600, 23 h; active compounds read low; OD600 absorbance (no concentration beside the values); hit rate 0.21% among 330,000; AID 1053175;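 active means OD600 absorbance below the run mean of sample wells minus 3.6 SD, in any replicate, cut at about 0.56 in these data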;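 further: stock transfer was 300 nL into about 60 µL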
AF4-AF9 inh = MLL-AF4/AF9 protein interaction inhibition; P42568; AlphaScreen, biotin-AF4 peptide binding to FLAG-AF9; inhibition, % at 10 µM; hit rate 0.47% among 350,000;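 active means every replicate reaching a set inhibition limit, whatever the replicate mean, cut at about 25% in these data; inconclusive means mean inhibition reaches that limit but some replicates miss it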;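 further: 0% = plate neutral control median and 100% = total signal loss; the record names both 10 and 1 µM as test concentration; the first replicate is given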
HNF4A DNA FP = change in binding of human HNF4 alpha to DNA; HNF4a-FITC DNA binding, fluorescence polarization, 1 h; activity change, % at 10 µM; hit rate 0.3% among 360,000; AID 1224865; in the data active means activity change above about 30%, passing the limit was not always enough;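 further: controls were the assay level and a saturating level of protein; the project sought stronger binding though the title names inhibitors; some compounds called inactive have numbers as strong as hits; positive values seem to mean higher polarization but the record does not say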
Target sequence (P41235 whole entry, looked up): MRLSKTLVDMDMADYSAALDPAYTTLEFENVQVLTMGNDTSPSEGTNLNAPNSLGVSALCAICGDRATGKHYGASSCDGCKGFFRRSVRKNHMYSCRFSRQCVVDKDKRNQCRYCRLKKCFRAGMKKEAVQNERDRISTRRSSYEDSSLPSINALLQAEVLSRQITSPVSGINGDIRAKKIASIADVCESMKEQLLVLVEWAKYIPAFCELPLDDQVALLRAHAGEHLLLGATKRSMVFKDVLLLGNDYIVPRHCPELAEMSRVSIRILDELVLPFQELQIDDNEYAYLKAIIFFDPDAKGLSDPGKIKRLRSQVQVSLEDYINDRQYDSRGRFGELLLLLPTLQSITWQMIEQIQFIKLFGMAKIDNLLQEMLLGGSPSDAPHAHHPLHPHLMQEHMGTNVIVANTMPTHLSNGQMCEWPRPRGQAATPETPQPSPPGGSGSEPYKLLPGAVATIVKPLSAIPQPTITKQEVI
FGF22 binding = FGF22 (human) thermal shift binding; Q9HCT0; recombinant FGF22 thermal shift, SYPRO orange fluorescence; percent of sucrose octasulfate shift, DMSO zero; calls only at 9.99 µM; hit rate 1.5% among 340,000; AID 651658;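 active means melting point raised past a set limit in the mean and every replicate; inconclusive means no clear call; three in four hits are not shown here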
Target sequence (Q9HCT0 whole entry, looked up): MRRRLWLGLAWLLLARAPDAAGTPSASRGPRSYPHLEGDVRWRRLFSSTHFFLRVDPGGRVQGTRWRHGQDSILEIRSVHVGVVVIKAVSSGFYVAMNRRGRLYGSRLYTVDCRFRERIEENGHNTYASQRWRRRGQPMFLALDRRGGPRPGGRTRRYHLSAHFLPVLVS
UCH37 inh = inhibitors of human deubiquitinating enzyme UCH37; Q9Y5K5; purified proteasome/UCH37, Ub-AMC cleavage fluorescence; inhibition, % (no concentration beside the values); hit rate 0.33% among 330,000;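 active means mean of two replicates above 20%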;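 further: 0% = compound-free wells with enzyme and 100% = wells lacking proteasome; stock transfer was 100 nL into about 20 µL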
Target sequence (Q9Y5K5 whole entry, looked up): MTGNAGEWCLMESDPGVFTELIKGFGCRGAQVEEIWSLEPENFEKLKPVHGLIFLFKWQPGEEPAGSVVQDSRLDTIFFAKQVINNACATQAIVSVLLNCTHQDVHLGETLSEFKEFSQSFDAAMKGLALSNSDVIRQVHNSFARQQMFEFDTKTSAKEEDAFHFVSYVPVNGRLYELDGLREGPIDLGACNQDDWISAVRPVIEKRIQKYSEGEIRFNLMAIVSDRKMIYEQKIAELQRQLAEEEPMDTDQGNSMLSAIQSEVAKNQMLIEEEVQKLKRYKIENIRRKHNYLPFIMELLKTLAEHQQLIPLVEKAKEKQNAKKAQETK
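Schedule: 30 min plus 25 min, room temperature / Material: human UCH37 within purified proteasomes / Technique: AMC fluorescence intensity at 355/460 nm / Buffer or medium: pH 7.4 Tris-HCl (50 mM) with ovalbumin, ATP-MgCl2, DTT / Controls: wells without proteasome as full block, compound-free enzyme plus substrate as uninhibited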
Vif TR-FRET = inhibitors of Vif binding to APOBEC3G peptide, primary screen, biochemical, TR-FRET, GST-Vif 1-94, biotin-A3G peptide, dose response retest (AID 1117319); inhibition, %; hits with a dose series show IC50 in µM; hit rate 0.57% among 260,000; TR-FRET GST-Vif / biotin-A3G peptide binding; higher % means a stronger effect; test concentration not given here; strong numbers were not always called active;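 active means above the screen mean plus three standard deviations and confirmed in dose response; inconclusive means results disagree or hit not tested in dose response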;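 further: Vif residues 1-94 fused to GST binding biotinylated APOBEC3G peptide 110-148; 0% = full assay without inhibitor and 100% = GST in place of GST-Vif; retest series ran down from 100 µM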
RanGTP-Impb inh = inhibitors of RanGTP-importin-beta interaction, primary screen, biochemical, FRET, CFP-Ran, YFP-importin-beta, homogeneous. cell-free CFP-Ran/YFP-importin-beta FRET ratio. inhibition, % (concentration not given with the values). hit rate 1.1% among 300,000. AID 2216;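 active means most replicates above 15%; inconclusive means exactly half above 15%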;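 further: 0% = DMSO wells and 100% = Ran loaded with GDP instead of GTP; wells of about 40 µL received 100 nL stock; the first replicate is given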
* = called active by the depositor; i = inactive; u = inconclusive; x = no result given. This is a subset. The share of hits here may be higher or lower than overall.

nr	structure	Ecoli growth	AF4-AF9 inh	HNF4A DNA FP	FGF22 binding	UCH37 inh	Vif TR-FRET	RanGTP-Impb inh
1	CC1=NN(C(N)=S)C(=O)C1N=Nc1ccccc1Cl (stereo not drawn)	0.67	-1.7	-1.4	i	9.1	x	-3.1
2	Cc1cc(C)cc(N(C(=O)c2csnn2)C(C(=O)NC2CCCCC2)c2ccncc2)c1 (stereo not drawn)	0.71	3.4	-1.0	i	5.3	8%	0.3
3	COc1ccc(S(=O)(=O)N(CC(=O)NC2CCCC2)c2ccccc2OC)cc1	0.68	-14	-1.9	i	6.3	0%	0.2
4	COC(=O)C1=C(C)Nc2ccc(C)cc2S1	0.66	5.9	0.5	i	1.8	-6%	4.1
5	CC1(NC(=O)Nc2ccccc2)CCS(=O)(=O)C1 (stereo not drawn)	0.68	-0.4	4.9	i	2.8	-4%	10
6	COCc1[nH]nc2c1C(c1ccccc1F)C(C#N)=C(N)O2 (stereo not drawn)	0.67	x	1.8	x	-0.3	22%	5.4
7	O=C(CNC(=O)c1cccs1)c1ccc([N+](=O)[O-])cc1	0.7	x	4.1	x	5.3	-4%	0.0
8	CNc1ccc(-c2cccc([N+](=O)[O-])c2)cn1	x	3.0	-0.9	i	x	x	x
9	CCN1CCN(CCNC(=O)c2ccc3c(c2)N(Cc2ccc(F)cc2)C(=O)/C(=C/c2ccccc2)S3)CC1	0.58	58*	3.5	i	6.2	11%	10
10	O=C(CSc1ccc2ccccc2c1)Nc1nc2ccccc2[nH]1	0.71	3.1	-0.9	i	2.4	x	-4.4
11	Cc1ccc2nc(CSc3nc(C)ccc3C#N)[nH]c2c1	0.75	-28	-0.7	i	-167	2%	-0.6
12	CC1Cc2ccccc2N1C(=O)Cn1cc([N+](=O)[O-])ccc1=O (stereo not drawn)	0.68	-0.8	6.0	i	6.7	-2%	x
13	CCOc1ccc(N/C=C/C(=O)c2ccc3ccccc3c2)c([N+](=O)[O-])c1	0.75	x	4.5	x	9.8	4%	-8.5
14	COc1ccc(C(C)(NC(C)=O)c2nc(-c3ccc(S(C)(=O)=O)cc3)cs2)cc1 (stereo not drawn)	x	1.6	0.0	i	x	x	x
15	O=S(=O)(c1cccc2c(S(=O)(=O)N3CCCC3)cccc12)N1CCCC1	0.71	x	-4.4	x	-1.9	-6%	-1.7

A second format for two compounds above.
5	CC1(NC(=O)Nc2ccccc2)CCS(=O)(=O)C1 (stereo not drawn)
6	COCc1[nH]nc2c1C(c1ccccc1F)C(C#N)=C(N)O2 (stereo not drawn)
entry no.	5	6
Ecoli growth	0.68	0.67
AF4-AF9 inh	-0.4	x
HNF4A DNA FP	4.9	1.8
FGF22 binding	i	x
UCH37 inh	2.8	-0.3
Vif TR-FRET	-4%	22%
RanGTP-Impb inh	10	5.4

Additional records follow:
nr	structure	Ecoli growth	AF4-AF9 inh	HNF4A DNA FP	FGF22 binding	UCH37 inh	Vif TR-FRET	RanGTP-Impb inh
16	Cc1ccc(C(=O)CN2C(=O)NC3(CCc4ccccc43)C2=O)c(C)c1 (stereo not drawn)	0.71	0.4	-2.0	x	1.3	-5%	-0.1
17	COc1ccc(S(=O)(=O)N2CCC(NC(=O)c3cccc(F)c3)CC2)cc1	0.69	-1.1	0.5	i	2.0	x	-2.5
18	O=C(CSc1nncc2ccccc12)N1CCOCC1	0.69	x	-2.8	x	4.6	2%	-5.5
19	COc1ccc(C2CC(=O)N3CN(c4ccccc4F)CSC3=C2C#N)cc1OC (stereo not drawn)	0.77	3.8	3.0	i	2.4	9%	-158
20	COc1ccc(NC(=O)c2ccccc2Cl)cc1NC(=O)CN1CCOCC1	0.7	x	0.8	x	1.4	-5%	-2.5
21	CCCCN(CCCNC(=O)c1ccc2nc(N3CCOCC3)sc2c1)Cc1ccccc1	0.72	x	5.1	x	1.6	-4%	2.7
22	COc1ccc(C2(CNC(=O)CCC(=O)O)CCCC2)cc1OC	0.64	x	-1.6	x	1.1	1%	u
23	O=C(CSc1n[nH]c(=O)[nH]c1=O)N1CCCCCC1	0.7	-7.7	3.0	i	2.1	4%	u
24	COc1ccccc1N1CCN(C2CC(=O)N(C)C2=O)CC1 (stereo not drawn)	0.72	5.4	1.6	i	0.6	u	3.0
25	Cc1cc(C(C)(C)C)oc1C(=O)N(CC(=O)NC1CCCC1)c1c(C)cccc1C	0.67	-14	1.2	i	5.6	-3%	-2.7
26	Cc1ccccc1C(O)c1cccnc1 (stereo not drawn)	0.66	2.2	-0.8	i	0.9	-1%	1.5
27	O=C(Nc1cc(Sc2ccccn2)cc([N+](=O)[O-])c1)c1cccc(F)c1	0.61	x	-3.0	x	3.8	x	1.1
28	COc1ccc(C(=O)N/C(=C/c2cccs2)C(=O)NCCCn2ccnc2)cc1OC	0.76	x	-0.3	x	2.4	32%	-0.5
29	CCCN1CCC(=O)N([C@H](CSc2ccccc2)Cc2ccccc2)CC1	x	6.5	-2.7	i	4.0	x	1.6
30	Cc1ccc2c(c1)C(c1ccncc1)=NNC(c1cccnc1)=N2	0.66	0.8	-4.4	x	1.9	x	5.7
31	Cc1ccc2c(CSc3nnc4ccccn34)cc(=O)oc2c1C	0.69	0.6	0.2	i	6.8	19%	-2.5
32	N#CCCN1C(=O)C2(OCCO2)c2ccccc21	0.68	-1.4	0.3	i	1.8	-4%	-1.0
33	COC(=O)[C@H](CCSC)NC(=O)NCc1ccc(S(N)(=O)=O)cc1	0.71	x	1.0	x	2.8	-1%	0.3
34	Cc1cc(C(=O)Nc2ccc3c(c2)OCO3)cs1	0.64	0.8	-0.2	i	2.7	2%	-0.8
35	CC(C)Cn1c(N)c(C(=O)CSc2ncnc3sc4c(c23)CCCC4)c(=O)n(C)c1=O	0.69	-9.7	5.4	i	2.8	-5%	u
36	CCn1cc(C(=O)O)c(=O)c2cc(F)c(N3CCN(C(=S)NC(=O)c4ccccc4Br)CC3)cc21	0.067*	-2.2	-0.6	i	-5.1	x	4.5
37	CN1CCN(S(=O)(=O)c2ccc(NC(=S)NC(=O)C3CCC3)cc2)CC1	0.68	x	0.2	x	4.5	-7%	-0.5
38	CCN(CC)S(=O)(=O)c1ccc(OCCNS(C)(=O)=O)cc1	0.69	-2.2	0.1	i	1.4	3%	1.1
39	CC1CN(C(=O)COC(=O)c2ccc3ncsc3c2)CC(C)O1 (stereo not drawn)	0.69	-1.6	-3.4	i	-1.8	-6%	x
40	Cc1cc(C(=O)c2ccc(Cl)cc2)c(NC(=O)CCl)s1	0.7	x	3.7	x	4.3	u	-0.5
41	O=C(c1ccccc1C(F)(F)F)N1CCN(S(=O)(=O)c2ccccc2)CC1	0.71	x	-3.1	x	1.4	-2%	-5.8
42	O=C(CSc1ccccn1)Nc1ccc2ccccc2c1	0.63	x	x	x	2.9	1%	-1.8
43	Cc1c(O)cnc2nn(-c3ccccc3)c(=N)n12	x	4.4	0.9	i	x	x	x
44	CC(=O)Nc1cccc(N(C)C)c1	0.73	x	-0.3	x	3.6	7%	-1.1
45	COc1ccccc1CN1CCCC(C(=O)N2CCCCC2)C1 (stereo not drawn)	0.67	-2.2	-1.8	i	3.8	0%	7.8
46	COc1ccc(S(=O)(=O)Nc2cc(C(C)C)c(O)cc2C)cc1	0.69	x	-4.8	x	0.5	-1%	-1.3
47	CCOC(=O)c1ccc(NC(=O)Nn2cnnc2)cc1	0.71	1.8	-0.8	i	-0.9	x	-3.5
48	Cc1cccc(NC(=S)/N=C(\N)Nc2nc(C)c3ccccc3n2)c1	0.7	x	1.6	x	3.8	x	4.8
49	Cc1ccc(CN2CCN(Cc3ccc4c(c3)OCCO4)CC2CCO)cc1 (stereo not drawn)	0.66	-5.9	-0.2	i	1.7	7%	-0.2
50	COc1cccc(NC(=O)Nc2ccccc2Br)c1	0.64	x	-1.4	x	1.3	16%	0.0
51	Cc1cccc(NC(=O)CSc2ccc(-c3ccco3)nn2)c1	0.63	x	-0.8	x	3.9	x	3.0
52	COc1ccc(-c2nn(-c3ccccc3)cc2C=O)cc1[N+](=O)[O-]	0.7	2.4	0.6	i	4.1	x	-2.2
53	CCOC(=O)c1c(=O)n(O)c2ccc(C)cc2[n+]1[O-]	0.7	x	-2.8	x	39*	26%	-7.6
54	CC(C)c1ccccc1NC(=O)c1ccc2ncsc2c1	0.68	7.5	4.8	i	0.7	x	-1.2
55	Cc1ccc(NC(=O)NCCCN2CCCC2=O)c(C)c1	0.64	-2.2	2.9	i	3.2	x	-0.8
56	COc1ccccc1CCCNC(=O)C1CCC(=O)N(CCCN2CCCC2=O)C1 (stereo not drawn)	0.65	-10	-1.0	i	2.8	7%	-0.6
57	CN1CCC(OC(c2ccccc2)c2ccccc2)CC1	0.63	-77	1.4	i	0.1	x	-6.4
58	O=C(COC(=O)/C=C/c1ccc([N+](=O)[O-])cc1)Nc1ccc2[nH]c(=O)[nH]c2c1	0.7	-1.6	2.7	x	2.6	-9%	x
59	O=C(CSc1nnc2ccccn12)Nc1cccc(-c2nc3ccccc3s2)c1	x	2.6	2.4	i	x	3%	2.9
60	O=C(COC(=O)c1ccco1)Nc1ccc2c(c1)OCCO2	0.68	x	-2.0	x	2.4	-6%	-0.5
61	Cc1ccc(S(=O)(=O)NCCOc2cc(C)ccc2C)cc1	0.68	-7.5	6.7	i	1.6	x	3.1
62	CN(C)c1ccc(/C=N/OC(=O)Nc2ccccc2Cl)cc1	x	1.3	-4.5	i	x	13%	0.8
63	O=C(Nc1cccc(C(F)(F)F)c1)C1CCCN(S(=O)(=O)c2cnc[nH]2)C1 (stereo not drawn)	0.67	x	0.2	x	2.4	20%	2.6
64	O=C(Nc1cccc2ncccc12)c1ccccc1Cl	0.67	0.9	3.1	i	1.4	x	-0.3
65	O=C(Cn1cc[n+](CC(=O)c2ccccc2)c1)c1ccccc1	0.73	x	-1.1	x	-0.8	18%	2.4
66	O=C(COc1ccc2ccccc2c1)NNC(=O)C(=O)Nc1ccccc1	0.72	-1.5	-1.9	i	2.2	x	10
67	COc1cc(NC(=S)Nc2ccc3c(c2)OCCO3)cc(OC)c1OC	0.69	4.3	-1.0	i	3.3	-8%	-0.4
68	CCOC(=O)c1sc2nc(CSc3ccccc3)nc(NCCN(C)C)c2c1C	0.66	8.6	13	x	4.4	-10%	10
69	COc1c(C)cc(S(=O)(=O)N2CCOCC2)c(C)c1C	0.68	-4.4	-0.2	i	4.2	1%	-4.6
70	COc1ccc(C2CC(c3ccc(F)cc3)n3nc(NS(C)(=O)=O)nc3N2)cc1 (stereo not drawn)	0.66	-4.6	-0.8	x	-0.4	6%	0.3
71	CCCc1cc(=O)[nH]c2nnc(SCC(=O)Nc3nnc(SCC)s3)n12	0.69	-14	-1.4	i	3.7	-4%	-0.2
72	O=C(Nc1ccccn1)c1cc2ccccc2o1	0.67	x	1.6	x	3.5	-2%	9.2
73	CCOC(=O)c1ccc(N2CCN(C(C)=O)CC2)c(NC(=O)c2cccnc2)c1	0.68	-0.4	-2.4	i	4.9	-7%	-3.3
74	COc1ccc(NC(=O)C2CCN(S(=O)(=O)c3ccc4c(c3)CC(C)N4C(C)=O)CC2)c(OC)c1 (stereo not drawn)	0.69	-1.4	-3.3	i	4.0	x	-0.4
75	CCOC(=O)C1=C(Nc2ccc(Br)cc2)CC(C)(O)C(C(=O)OCC)C1c1ccccc1 (stereo not drawn)	0.74	x	-1.7	x	-21	-3%	-0.7
76	COc1ccc(/C=C2/C(=O)OCc3cc(OC)c(OC)cc32)cc1	0.67	x	-1.2	x	9.0	-5%	-2.3
77	CN1CCC(N(C)C(=O)/C(C#N)=C/c2ccccc2)CC1	0.68	-0.2	-1.9	i	7.8	-4%	2.4
78	CC(=O)COc1ccc2c3c(c(=O)oc2c1)CCCC3	0.68	x	0.3	x	-69	2%	u

From PubChem
